Source: PubChem (Broad Institute)
DUX4 txn inh – DUX4-mediated transcription inhibition. 293T-iDUX4 ZSCAN4-Gaussia luciferase reporter, 24 h; stronger effect = lower value. activity change, negative = inhibition, % (test concentration not listed). hit rate 0.8% among 37,000. AID 1224904;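 active means -10% or lower and over 25 points stronger than a control reporter; inconclusive means -10% or lower with a smaller gap; inactive means above -10%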;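 further: 0% = median of neutral control wells and -100% = median of positive control wells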
DUX4 txn inh difference – also measured in DUX4 txn inh; calls as there; Gaussia minus Italica difference, %; measured here: selective DUX4 reporter inhibition;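 worked out from the two reporters; negative = selective loss of the DUX4 reporter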
DUX4 txn inh control – second read-out of DUX4 txn inh, no call of its own (marks repeat the call); activity change, negative = inhibition, %; measured here: Italica tet-on control reporter;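 0 = neutral control and -100 = positive control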
* hit, by the source's call; u = inconclusive; x = not tested or not shown. Not all compounds are listed, so the mix of outcomes need not match the whole.

SMILES	DUX4 txn inh	DUX4 txn inh difference	DUX4 txn inh control
COc1ccc2c3c([nH]c2c1)[C@H](CO)N(C(=O)Cc1ccccc1)CC31CN(C)C1	1.5	-0.6	2.0
COc1ccc(-c2ccc([C@H]3[C@@H](C#N)N(C(=O)c4cccc(F)c4)[C@H]3CO)cc2)cc1	1.6	1.1	0.5
C[C@@H]1CN([C@H](C)CO)C(=O)c2cc(NS(C)(=O)=O)ccc2O[C@@H]1CN(C)C	-0.2	0.6	-0.8
O=C(C1CC1)N1CC2(C1)[C@H](c1ccccc1)[C@@H](CO)N2Cc1cncnc1	6.5	1.8	4.7
C/C=C/c1ccc2c(c1)O[C@@H](CN(C)C(=O)c1cccc(F)c1)[C@H](C)CN([C@H](C)CO)S2(=O)=O	1.3	-0.5	1.8
O=C(C[C@@H]1C[C@@H]2c3cc(NC(=O)Cc4ccncc4)ccc3O[C@@H]2[C@H](CO)O1)NCc1cc(F)ccc1F	7.1	5.1	2.0
CC(C)[C@H](C)NC(=O)N(C)C[C@H]1OCc2ccccc2-c2ccccc2C(=O)N([C@H](C)CO)C[C@@H]1C	3.7	-0.1	3.8
O=C(NCC1CCCCC1)[C@@H]1[C@@H](CO)[C@@H]2Cn3c(ccc(-c4ccncc4)c3=O)[C@H]1N2	-2.6	-6.8	4.3
COCC(=O)N1[C@H](C#N)[C@@H](c2ccc(C3=CCCCC3)cc2)[C@@H]1CO	-2.6	-1.1	-1.5
CO[C@H](CN(C)S(=O)(=O)c1cccc(Cl)c1)[C@H](C)CN([C@@H](C)CO)S(=O)(=O)c1cccc(Cl)c1	u	x	x

Sorted by the number under DUX4 txn inh (ascending): some entries from above.
canonical_smiles	DUX4 txn inh
O=C(NCC1CCCCC1)[C@@H]1[C@@H](CO)[C@@H]2Cn3c(ccc(-c4ccncc4)c3=O)[C@H]1N2	-2.6
C/C=C/c1ccc2c(c1)O[C@@H](CN(C)C(=O)c1cccc(F)c1)[C@H](C)CN([C@H](C)CO)S2(=O)=O	1.3
COc1ccc2c3c([nH]c2c1)[C@H](CO)N(C(=O)Cc1ccccc1)CC31CN(C)C1	1.5

The results go on.
SMILES	DUX4 txn inh	DUX4 txn inh difference	DUX4 txn inh control
CNC[C@H]1Oc2c(NC(=O)Nc3ccc(C(F)(F)F)cc3)cccc2C(=O)N([C@H](C)CO)C[C@H]1C	-1.1	1.1	-2.2
CNC[C@H]1OCCCC[C@H](C)Oc2ccc(NC(=O)Nc3c(C)noc3C)cc2C(=O)N([C@@H](C)CO)C[C@@H]1C	2.8	0.4	2.4
C[C@@H]1CN([C@H](C)CO)C(=O)c2ccccc2-c2ccccc2CO[C@H]1CN(C)C(=O)c1ccncc1	8.4	1.5	6.9
COc1cccc(-c2ccc3c(c2)O[C@H](CN(C)C(=O)C2CCOCC2)[C@H](C)CN([C@H](C)CO)S3(=O)=O)c1	2.9	1.0	1.9
O=C(C[C@@H]1C[C@H]2c3cc(NC(=O)NC4CCCCC4)ccc3O[C@H]2[C@@H](CO)O1)NCc1cccnc1	-1.5	2.9	-4.4
CCC(=O)N(C)C[C@@H]1Oc2ncc(C#CC(C)C)cc2C(=O)N([C@H](C)CO)C[C@H]1C	-2.6	0.4	-3.0
O=C(N[C@@H]1CC[C@H](CC(=O)N2CCc3ccccc3C2)O[C@@H]1CO)C1CCOCC1	6.5	2.4	4.1
Cc1ccc(S(=O)(=O)N2CC[C@@H]3[C@H](CO)N(C)c4ccc(C#Cc5cccnc5)cc4[C@@H]32)cc1	u	x	x
CO[C@@H]1CN(C)C(=O)c2ccc(NC(=O)NC(C)C)cc2OC[C@@H](C)N(Cc2ccc(-c3ccccn3)cc2)C[C@@H]1C	u	x	x
O=C(Cc1ccccc1)N1CC(=O)N2[C@H](C1)[C@@H](c1ccc(-c3ccc(F)cc3)cc1)[C@@H]2CO	u	x	x
CC(=O)NC[C@@H]1[C@@H](c2ccc(-c3ccccc3F)cc2)[C@@H](CO)N1C(C)=O	-2.1	-2.8	0.7
O=S(=O)(c1cccs1)N1CCCCN2[C@@H](CO)[C@@H](c3ccc(-c4ccccc4)cc3)[C@@H]2C1	2.5	-8.3	10.8
CCCNC(=O)N1CC2(C1)[C@@H](c1ccccc1)[C@H](CO)N2CC1CC1	5.5	2.1	3.4
CCNC(=O)C[C@H]1CC[C@@H]2[C@H](COc3ccc(NC(=O)C4CCCCC4)cc3C(=O)N2C)O1	-3.0	-3.9	0.9
COCC(=O)N1[C@H](C#N)[C@@H](c2ccc(-c3cccnc3)cc2)[C@@H]1CO	-0.9	4.1	-4.9
CCCN1[C@H](C(=O)N2CCOCC2)[C@@H](CO)[C@@H]2Cn3c(ccc(-c4ccccc4F)c3=O)[C@@H]21	-7.3	-10.9	3.6
COc1cccc(CN2C[C@@H]3N[C@H](C2)C3c2ccc(-c3cccc(C#N)c3)cc2)c1 (stereo not given in full)	u	x	x
CO[C@@H]1CN(C)C(=O)c2cc(NS(C)(=O)=O)ccc2OC[C@H](C)N(C(=O)C2CCOCC2)C[C@H]1C	3.6	7.9	-4.3
COc1ccccc1NC(=O)N[C@H]1C=C[C@@H](CC(=O)N[C@@H](C)c2ccccc2)O[C@@H]1CO	7.2	9.6	-2.3
COc1ccc(C[C@@H]2CCn3nncc3COC[C@@H](c3ccccc3)NC2=O)cc1	-3.5	-9.4	5.9
C/C=C/c1ccc2c(c1)O[C@@H](CN(C)C(=O)Cc1cccnc1)[C@@H](C)CN([C@@H](C)CO)S2(=O)=O	2.3	2.6	-0.3
O=C(CN1CCOCC1)N1CC[C@@H]2[C@H](CO)Nc3ccc(-c4ccccc4)cc3[C@@H]21	6.8	6.6	0.2
C[C@H](CO)N1C[C@H](C)[C@H](CN(C)Cc2ccc(C(=O)O)cc2)OCc2ccccc2-c2ccccc2C1=O	-0.3	0.4	-0.8
C[C@@H]1CN([C@H](C)CO)S(=O)(=O)c2ccc(C#CC3(O)CCCC3)cc2O[C@@H]1CN(C)C(=O)c1cccnc1	-0.3	-1.7	1.4
COc1ccc(NC(=O)N(C)C[C@H]2Oc3ncc(C#C[C@H](C)O)cc3C(=O)N([C@@H](C)CO)C[C@@H]2C)cc1	5.0	7.3	-2.3
Cc1noc(C)c1S(=O)(=O)N(C)C[C@@H]1Oc2c(NS(=O)(=O)c3cn(C)cn3)cccc2C(=O)N([C@H](C)CO)C[C@@H]1C	-2.9	-6.4	3.6
N#C[C@@H]1[C@@H](c2ccc(-c3ccc(F)cc3)cc2)[C@H](CO)N1C(=O)Cc1ccccc1	1.5	1.9	-0.5
CNC(=O)C[C@@H]1CC[C@@H]2[C@@H](COc3ccc(NC(=O)NCc4ccccc4)cc3C(=O)N2C)O1	-0.2	3.8	-4.0
COc1ccc(-c2ccc([C@H]3[C@@H](CO)N4CCCCN(CC5CCOCC5)C[C@@H]34)cc2)cc1	11.7	12.2	-0.4
N#Cc1ccc(-c2ccc([C@@H]3[C@H]4CNC[C@@H]3N4Cc3cc(F)ccc3F)cc2)cc1	u	x	x
O=C(NCC1CCCCC1)[C@@H]1[C@@H](CO)[C@@H]2Cn3c(ccc(-c4cccnc4)c3=O)[C@H]1N2	-0.9	-3.3	2.4
C[C@@H]1CN([C@H](C)CO)C(=O)CCCn2cc(nn2)CO[C@H]1CN(C)C(=O)Nc1cccc(F)c1	-1.1	1.0	-2.2
O=C1N[C@H](Cc2ccccc2)COCc2cn(nn2)CC[C@@H]1Cc1ccc(Cl)cc1	4.1	1.4	2.7
O=C(C[C@@H]1C[C@@H]2c3cc(NC(=O)C4CCC4)ccc3O[C@@H]2[C@@H](CO)O1)NCc1ccc(Cl)cc1	-5.4	-4.1	-1.4
COC(=O)C[C@H]1CC[C@H]2[C@H](COc3ccc(NC(=O)c4cccc(Cl)c4)cc3C(=O)N2C)O1	3.9	1.8	2.1
COc1ccc(CNC(=O)C[C@H]2C[C@H]3c4cc(NC(=O)NC5CCCC5)ccc4O[C@H]3[C@@H](CO)O2)cc1	5.8	2.4	3.5
CN1C[C@@H]2[C@H](c3ccccc31)[C@H](CO)N2C(=O)c1cccnc1	-1.4	-2.2	0.8
COc1cccc(CNC(=O)[C@@H]2[C@@H](CO)[C@@H]3Cn4c(ccc(C5=CCCCC5)c4=O)[C@H]2N3)c1	-1.1	-1.5	0.4
C[C@H]1COCn2nncc2CCCC(=O)N1	-4.3	-1.3	-3.0
C/C=C/c1cnc2c(c1)C(=O)N([C@@H](C)CO)C[C@H](C)[C@H](CN(C)Cc1ccncc1)O2	0.5	0.4	0.2
CCOC(=O)N(C)C[C@@H]1OCc2ccccc2-c2ccccc2C(=O)N([C@@H](C)CO)C[C@H]1C	-7.2	-9.8	2.5
CN(C)CC#Cc1ccc([C@H]2[C@H](CO)N3CCCCN(C(=O)CN(C)C)C[C@@H]23)cc1	30.6	16.5	14.1
Cc1cccc(S(=O)(=O)N[C@H]2CC[C@H](CCNS(=O)(=O)c3ccccc3F)O[C@H]2CO)c1	-3.0	-4.0	1.0
CNC[C@H]1OCCCC[C@H](C)Oc2ccc(NC(=O)C3CCCCC3)cc2C(=O)N([C@@H](C)CO)C[C@@H]1C	-2.9	-6.8	3.9
CCS(=O)(=O)Nc1ccc2c(c1)C(=O)N(C)[C@H]1CC[C@@H](CC(=O)N[C@H]3CCN(Cc4ccccc4)C3)O[C@H]1CO2	-1.7	-2.2	0.5
COCC#Cc1ccc([C@@H]2[C@@H](CO)N3CCCCN(S(=O)(=O)c4ccc(OC)cc4)C[C@@H]23)cc1	u	x	x
CC[C@H]1CC=CC[C@@H](C)Oc2ccccc2C(=O)N(C)[C@H](C)C(=O)N1 (mixture of isomers)	-1.2	2.3	-3.5
CCCC(=O)Nc1ccc2c(c1)C(=O)N(C)[C@H]1CC[C@@H](CC(=O)N3CCCCC3)O[C@H]1CO2	2.2	-0.8	3.0
O=C(C1CCCC1)N1CC2(C1)[C@H](c1ccccc1)[C@H](CO)N2CC1CCCC1	u	x	x
C[C@@H](NC(=O)[C@H]1[C@H](CO)[C@H]2Cn3c(cccc3=O)[C@H]2N1Cc1cccnc1)c1ccccc1	3.0	10.9	-7.8

Additional structures
SMILES	DUX4 txn inh	DUX4 txn inh difference	DUX4 txn inh control
N#C[C@H]1[C@H](c2ccc(C#CCC3CCCC3)cc2)[C@H](CO)N1C(=O)c1ccccn1	4.2	4.6	-0.4
CCCC#Cc1ccc([C@@H]2[C@@H](C#N)N(C(=O)C3CCCC3)[C@H]2CO)cc1	-0.4	-2.6	2.2
O=C(Cc1cccnc1)N1CC(=O)N2[C@H](C1)[C@@H](c1ccc(-c3cccc(F)c3)cc1)[C@@H]2CO	4.1	6.1	-2.0
O=C(C[C@@H]1CC[C@H]2[C@@H](COC[C@H](O)CN2C(=O)Nc2ccccc2)O1)NCc1ccccc1F	3.4	-0.3	3.8

A different layout for part of the listing above:
| Structure | DUX4 txn inh | DUX4 txn inh difference | DUX4 txn inh control |
| --- | --- | --- | --- |
| C[C@H]1COCn2nncc2CCCC(=O)N1 | -4.3 | -1.3 | -3.0 |
| C/C=C/c1cnc2c(c1)C(=O)N([C@@H](C)CO)C[C@H](C)[C@H](CN(C)Cc1ccncc1)O2 | 0.5 | 0.4 | 0.2 |
| CCOC(=O)N(C)C[C@@H]1OCc2ccccc2-c2ccccc2C(=O)N([C@@H](C)CO)C[C@H]1C | -7.2 | -9.8 | 2.5 |
| CN(C)CC#Cc1ccc([C@H]2[C@H](CO)N3CCCCN(C(=O)CN(C)C)C[C@@H]23)cc1 | 30.6 | 16.5 | 14.1 |
| Cc1cccc(S(=O)(=O)N[C@H]2CC[C@H](CCNS(=O)(=O)c3ccccc3F)O[C@H]2CO)c1 | -3.0 | -4.0 | 1.0 |
| CNC[C@H]1OCCCC[C@H](C)Oc2ccc(NC(=O)C3CCCCC3)cc2C(=O)N([C@@H](C)CO)C[C@@H]1C | -2.9 | -6.8 | 3.9 |
| CCS(=O)(=O)Nc1ccc2c(c1)C(=O)N(C)[C@H]1CC[C@@H](CC(=O)N[C@H]3CCN(Cc4ccccc4)C3)O[C@H]1CO2 | -1.7 | -2.2 | 0.5 |
| COCC#Cc1ccc([C@@H]2[C@@H](CO)N3CCCCN(S(=O)(=O)c4ccc(OC)cc4)C[C@@H]23)cc1 | u | x | x |
| CC[C@H]1CC=CC[C@@H](C)Oc2ccccc2C(=O)N(C)[C@H](C)C(=O)N1 (mixture of isomers) | -1.2 | 2.3 | -3.5 |
| CCCC(=O)Nc1ccc2c(c1)C(=O)N(C)[C@H]1CC[C@@H](CC(=O)N3CCCCC3)O[C@H]1CO2 | 2.2 | -0.8 | 3.0 |
| O=C(C1CCCC1)N1CC2(C1)[C@H](c1ccccc1)[C@H](CO)N2CC1CCCC1 | u | x | x |
| C[C@@H](NC(=O)[C@H]1[C@H](CO)[C@H]2Cn3c(cccc3=O)[C@H]2N1Cc1cccnc1)c1ccccc1 | 3.0 | 10.9 | -7.8 |
| N#C[C@H]1[C@H](c2ccc(C#CCC3CCCC3)cc2)[C@H](CO)N1C(=O)c1ccccn1 | 4.2 | 4.6 | -0.4 |
| CCCC#Cc1ccc([C@@H]2[C@@H](C#N)N(C(=O)C3CCCC3)[C@H]2CO)cc1 | -0.4 | -2.6 | 2.2 |
| O=C(Cc1cccnc1)N1CC(=O)N2[C@H](C1)[C@@H](c1ccc(-c3cccc(F)c3)cc1)[C@@H]2CO | 4.1 | 6.1 | -2.0 |
| O=C(C[C@@H]1CC[C@H]2[C@@H](COC[C@H](O)CN2C(=O)Nc2ccccc2)O1)NCc1ccccc1F | 3.4 | -0.3 | 3.8 |
